High-throughput results as filed in PubChem.
Rango release inh – qHTS Assay for Inhibitors of RanGTP induced Rango (Ran-regulated importin-beta cargo) - Importin beta complex dissociation. 340,000 compounds, 0.071% hits. Potency, µM (series often up to 46.1 µM), for inactives: top-dose activity change, negative = inhibition. Biochemical FRET Rango-importin beta, RanGTP-induced dissociation; active means falling FRET ratio curve, often poorly fitted, with flat reads before Ran was added; inconclusive means other falling curves, or compound fluorescence or quenching; inactive means flat or rising ratio curve;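 further: potency means the concentration at half of the fitted maximal effect; % of control where 0% means no effect; nearly all actives have a fitted effect of over 45% in size; -100% = wells without RanGTP and RCC1; the record marks most hits as doubtful in a second field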
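Rango FRET biosensor (snurportin-1 IBB flanked by N-terminal EYFP and C-terminal CFP10) at 0.1 uM, with 0.25 uM importin beta in PBS, 1mM DTT, 0.02% Tween-20, 0.1% BSA. 0.6 uM Ran, 2mM GTP and 0.2 uM RCC1 were then added for 45 min at room temperature. Inhibition read as loss of FRET rise.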
miR-21 reporter – qHTS Assay for Modulators of miRNAs and/orActivators of miR-21 | HeLa miR-21 FLuc reporter, luciferase, 48 h | Potency, µM (series often up to 38.3 µM), for the others: at the highest dose reporter change, positive = more light | 340,000 tested, under 10 active | AID 2288, 2010; active = well fitted rising curve with a large enough effect; inconclusive = small, poorly fitted or top-dose-only effect; inactive = no such curve, though single readings can be large or run the other way;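 further: % of control where 0% means no effect; miR-21 action dims this reporter so a rising signal means less miR-21 action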
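HeLa cells endogenously expressing miR-21, stably carrying CMV-driven firefly luciferase with a downstream miR-21 binding site, 2000 cells/well. Titrations up to approximately 40 uM, 48 hours; luciferase luminescence read.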
GLA inh pH 4.5 – qHTS Assay for Inhibitors of Human alpha-Galactosidase at pH 4.5; Alpha-galactosidase A (Homo sapiens), P06280; 230,000 tested, under 10 active; AID 1467, 2008; purified enzyme, 4-MU-alpha-Gal fluorescence, pH 4.5; activity change, negative = inhibition, % at 105 µM; inconclusive = small, poorly fitted or top-dose-only inhibition, or a rising curve; inactive = flat fitted curve, though single readings scatter; no compound was filed as active;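 further: 0% = full activity with enzyme and -100% = basal without enzyme; dose as in the result columns while the protocol names 77 µM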
Target sequence (P06280 whole entry, looked up): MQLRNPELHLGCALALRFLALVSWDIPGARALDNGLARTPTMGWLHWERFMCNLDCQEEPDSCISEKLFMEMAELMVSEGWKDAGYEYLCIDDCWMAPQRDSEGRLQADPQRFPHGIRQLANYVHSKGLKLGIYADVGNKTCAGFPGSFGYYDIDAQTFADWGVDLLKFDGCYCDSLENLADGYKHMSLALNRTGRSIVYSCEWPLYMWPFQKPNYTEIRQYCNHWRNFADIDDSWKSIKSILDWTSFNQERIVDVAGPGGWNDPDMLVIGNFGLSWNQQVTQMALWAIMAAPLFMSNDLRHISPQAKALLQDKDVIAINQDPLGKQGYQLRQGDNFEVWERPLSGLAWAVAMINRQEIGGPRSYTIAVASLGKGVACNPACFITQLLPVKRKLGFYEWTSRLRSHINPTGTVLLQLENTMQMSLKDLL
Rango-impB inh – qHTS Assay for Inhibitors of Rango (Ran-regulated importin-beta cargo) - Importin beta complex formation; Rango CFP/YFP FRET sensor + importin beta, 45 min; 340,000 compounds, 0.031% hits; Potency, µM (titrated, usually from 92.2 µM), for inactives: top-dose inhibition of complex formation; Importin subunit beta-1 (Homo sapiens), Q14974; AID 540263, 2011; active = rising FRET ratio curve, often small or poorly fitted; inconclusive = mostly compound fluorescence or quenching in the first reads; inactive = flat curves in all reads;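 further: potency means the concentration at half of the fitted maximal effect; 0% = DMSO wells and 100% = buffer wells lacking importin beta; nearly all actives have a fitted effect of over 15% in size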
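Inhibition scored from the CFP 486 nm/YFP 530 nm FRET ratio 45 min after adding 0.125 microM importin beta to 50 nM Rango biosensor preincubated 5 min with compound (room temperature, PBS with DTT, Tween-20, BSA). No-importin wells as positive control.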
The depositor's hits bear a star; ? = inconclusive; . = not tested or not shown; & = joins results of further samples; [ ] = remark or other dose. Only part of the results is shown (hit frequency here may not be typical).

The first three compounds, ahead of the listing:
SMILES	Rango release inh	miR-21 reporter	GLA inh pH 4.5	Rango-impB inh
Cn1c(NC(=O)CCc2ccccc2)cc(=O)n(C)c1=O	6.9%	-63.2%	4.4	-0.2%
CCOC(=O)c1c(C)[nH]c(C)c1C(=O)COC(=O)CCOc1ccccc1OC	2.0%	-6.9%	4.1	-0.6%
COc1cc(/C=N/NC(=O)c2cc(-c3ccccc3OC(C)C)nc3ccccc23)ccc1O	13.3%	25.7%	0.8	-2.3%

This part in full, from the first entry:
SMILES	Rango release inh	miR-21 reporter	GLA inh pH 4.5	Rango-impB inh
Cn1c(NC(=O)CCc2ccccc2)cc(=O)n(C)c1=O	6.9%	-63.2%	4.4	-0.2%
CCOC(=O)c1c(C)[nH]c(C)c1C(=O)COC(=O)CCOc1ccccc1OC	2.0%	-6.9%	4.1	-0.6%
COc1cc(/C=N/NC(=O)c2cc(-c3ccccc3OC(C)C)nc3ccccc23)ccc1O	13.3%	25.7%	0.8	-2.3%
CCn1c(=O)n(CC(=O)NCC2CCCO2)c(=O)c2c3c(sc21)COC(C)(C)C3 (centres undefined)	0.6%	-0.8%	.	2.4%
CC[C@@H]1C=C(C(=O)O)[C@H](c2ccc(Cl)cc2)N1S(=O)(=O)c1ccc(C)cc1	8.0%	.	.	-0.5%
COc1cccc(NC(=O)c2cncs2)c1	-9.8%	-3.3%	.	-0.5%
CCc1ccc2nc3sc(C(=O)N4CCc5ccccc54)c(N)c3cc2c1	.	1.9%	-1.8	.
O=C(Nc1cccc(Cl)c1)c1nc[nH]c1C(=O)NCCCNC(=O)c1[nH]cnc1C(=O)Nc1cccc(Cl)c1	8.2%	.	.	-5.8%
Cc1nn(C(C)CC(=O)O)c(C)c1C (centres undefined)	-13.9%	-0.9%	3.3	-0.4%
COC(=O)c1c(NC(=O)C2CC=CCC2C(=O)O)sc(C(N)=O)c1C (centres undefined)	-10.4%	3.2%	1.5	-0.3%
CCCN(CC(=O)Nc1ccccc1C)C(=O)COc1ccc2c(c1)CCC2	-16.6%	-15.5%	.	1.6%
COc1cc2ncnc(Nc3ccc4c(c3)OCO4)c2cc1OC	16.6%	-29.2%	.	-1.0%
COC(=O)c1sc2ccccc2c1C(=O)OC	-8.1%	-2.5%	0.9	-5.3%
Cc1[nH]c2ccccc2c1/C=N/Nc1nc(Nc2ccc(F)cc2)nc(N2CCOCC2)n1	14.3%	14.2%	-0.3	4.1%
CC(NC(=O)COc1ccccc1)C(c1ccccc1)N1CCN(C)CC1 (centres undefined)	0.4%	-17.0%	3.4	4.7%
Cc1cc(C)n2c(SCC(=O)NCc3ccco3)nnc2n1	-8.7%	-1.5%	1.6	-0.1%
CCOc1ncccc1C(=O)OCC(=O)Nc1c(C)cccc1C	-6.4%	1.6%	10.4	0.6%
Cc1ccc(NC(=O)CN2C(=O)NC(C)(C)C2=O)cc1S(=O)(=O)N1CCCCCC1	-8.9%	.	.	-3.3%
CC(C)CCNc1nc2c(c(=O)[nH]c(=O)n2C)n1CC(O)COC(C)C (centres undefined)	0.7%	-2.0%	-3.0	-0.5%
CCn1nc(C)c(NC(=O)/C=C/c2cnn(C)c2C)c1C	6.6%	-1.5%	-5.8	7.7%
CC(=O)Nc1ccc(NC(=O)C2c3ccccc3Oc3ccccc32)cc1	-4.3%	1.9%	7.1	-0.6%
CCS(=O)(=O)N1Cc2ccccc2CC1C(=O)Nc1nccs1 (centres undefined)	-11.5%	-61.9%	2.4	0.6%
C=CCNc1nnc(Cl)c2ccccc12	10.9%	-22.3%	-0.6	-0.1%
COc1ccc(CCNC(=O)C(=O)NCC2OCCN2S(=O)(=O)c2ccc(F)cc2)cc1OC (centres undefined)	6.0%	4.5%	.	?
Cc1ncc(CO)c2c1Oc1nc(-c3ccccc3)nc(SCC(=O)N3CCCCC3)c1C2	-1.9%	-2.0%&0.7%	.	4.1%
CC(=O)N1CCc2cc(S(=O)(=O)NC(Cc3ccccc3)C(=O)NCCN3CCCCC3C)ccc21 (centres undefined)	5.4%	0.7%	-15.0[21.1 µM]	-0.2%
CC(=O)Nc1ccccc1OC(C)C(=O)N1CC(C)CC(C)C1 (centres undefined)	0.3%	0.9%	4.7	2.3%
CC(C)(C)C1CCC(=NNC(=O)CC(=O)NCc2ccccc2)CC1 (centres undefined)	-10.1%	-0.2%	-0.2	-3.1%
C/C(=N\NC(=O)c1ccc([N+](=O)[O-])cc1)c1c(O)cc(C)oc1=O	4.0%	-6.1%	-4.3	0.7%
O=C(CN(Cc1ccco1)Cc1cccs1)N1CCN(S(=O)(=O)c2cccc(F)c2)CC1	-15.1%	.	.	0.4%
Cn1c(=O)c2[nH]c(C3CC3)nc2n(C)c1=O	-4.5%	.	.	-3.2%
COc1ccc(C(=O)N2CCN(c3ccccc3Cl)CC2)cc1S(=O)(=O)NC1CC1	0.5%	.	.	-4.5%
Cc1ccc(S(=O)(=O)NC2CCSC2=O)cc1C (centres undefined)	-16.1%	.	.	-6.3%
CCOc1cccc2cc(C(=O)NCc3ccccc3)c(=N)oc12	-2.7%	-3.8%	.	1.7%
COc1cccc(NC(=O)C2C3C=CC4(O3)C2C(=O)N(C2CC2)C4C(=O)NC2CCCCC2C)c1 (centres undefined)	0.8%	1.2%	5.7	0.3%
CCOc1ccccc1C(=O)NCC(=O)OCCCOC(=O)CNC(=O)c1ccccc1OCC	8.3%	.	.	-0.8%
OC1(c2ccccc2)C/C(=N\n2cnnc2)C=C1c1ccccc1 (centres undefined)	-6.6%	-10.8%	-1.7	-1.9%
CN(Cc1nc(-c2cccs2)no1)CC1COCCO1 (centres undefined)	1.8%	-46.0%	4.7	-0.1%
Cc1ccc(/C=C/C(=O)O)cc1S(=O)(=O)NCCCC(=O)O	15.3%	-5.2%	-2.2	1.3%
N#CCCCSc1nnc(-c2ccc(Cl)cc2)n1-c1ccccc1	5.4%	-17.7%	5.8	0.6%
CCC1CCCCN1C(=O)COc1ccc2c(c1)OCO2 (centres undefined)	15.4%	-17.4%	.	-5.6%
COc1cc(/C=N/NC(=O)CN(Cc2ccco2)S(=O)(=O)c2ccccc2)ccc1O	-15.7%	-8.5%	-1.3	-0.6%
N/C(=N\OC(=O)c1ccc([N+](=O)[O-])cc1)c1ccccn1	-0.3%	-34.6%	-0.6	-0.7%
Cc1cccc(NC(=O)CSc2nnc(NC(=O)c3ccco3)s2)c1	11.5%	-39.2%	2.8	-1.9%
c1csc(CSc2nnc3sc4ccccc4n23)c1	17.6%	-96.7%	-8.8	0.7%
O=C(CN1CCOCC1)Nc1cccc(C(F)(F)F)c1	23.4%	.	.	5.1%
CCOC(=O)N1CCC(NCCNC(=O)c2ccc(F)c(F)c2)CC1	14.7%	.	.	-3.3%
COc1ccc(CNC(=O)COC(=O)C2CCC(C(C)(C)C)CC2)cc1 (centres undefined)	1.2%	-7.8%	4.4	2.8%
COc1ccc(Nc2nc3ccccc3c(=O)s2)c(OC)c1	-4.0%	-8.7%	7.1	0.2%
Cc1cccc(C(=O)Nc2nnc(-c3ccncc3)o2)c1	-12.2%	1.3%	4.7	3.6%
Continued:
SMILES	Rango release inh	miR-21 reporter	GLA inh pH 4.5	Rango-impB inh
COc1ccc(N2C(=O)/C(=C/N(C)C)NC2=S)cc1	13.6%	0.1%	-5.3	-0.8%
CCOC(=O)N1CCN(C(=O)Cn2ncc3c2-c2ccccc2OC3)CC1	11.7%	6.4%	-8.1	1.1%
Cc1cc(SCn2nnc3ccccc3c2=O)nc2ccccc12	23.0%	-6.4%	-3.6	-5.1%
Cc1nn(-c2ccccc2)c(Cl)c1C1C(C#N)=C(N)Oc2c1c(C)nn2-c1ccccc1 (centres undefined)	1.0%	0.4%	-3.0	-2.5%
C/C(N)=C(/C#N)C(=O)COC(=O)C1=NN(c2ccccc2)C(=O)CC1	8.5%	-0.2%	.	-4.0%
NS(=O)(=O)c1ccc(CCNC(=O)c2ccc(CS(=O)(=O)c3ccc(Br)cc3)o2)cc1	-13.7%	6.4%	.	-1.9%
O=C1CC(c2ccc3c(c2)OCCO3)Oc2ccc([N+](=O)[O-])cc21 (centres undefined)	-17.2%	-64.7%	.	4.5%
COc1ccc2[nH]c3c(NCCCN4CCCC4=O)ncnc3c2c1	10.5%	-48.7%	7.2	6.7%
CCC(C)(C)NC(=O)C(c1ccccn1)N(C(=O)c1csnn1)c1ccc(C)cc1 (centres undefined)	0.4%	0.2%	4.6	-0.2%
O=C(NCCc1cn[nH]c1)C1CCC(=O)N(CCc2cccc(F)c2)C1 (centres undefined)	0.1%	0.7%	.	2.4%
CC(=O)Nc1ccc(NC(=O)Nc2ccccc2)cc1	-3.6%	-51.9%	.	0.4%
O=[N+]([O-])c1ccc(-c2ccc(/C=N/Nc3nc(N4CCCCC4)nc(N4CCCCC4)n3)o2)cc1	?	-6.9%	-0.2	?
C/C(NC(=O)c1ccccc1F)=C1\C(=O)C[C@@H]2[C@H]1C2(C)C	-9.4%	-55.8%	-4.3	-1.1%
CCCCN(CCCC)CCNC(=O)c1cn(C)c2ccc(S(=O)(=O)N(C)C3CCCCC3)cc2c1=O	-3.7%	3.1%	.	-0.1%
N#CCCN(Cc1cccs1)C(=O)Nc1ccccc1	-8.0%	-4.3%	-7.9	-0.9%
CO/N=C/c1ccc(N2CCOCC2)c([N+](=O)[O-])c1	0.7%	-6.0%	-1.0	4.2%
O=C(Nc1ccccc1)ON=C1c2ccccc2-c2ccccc21	-18.0%	-15.4%	13.2	-3.2%
O=C1C=C(NNC(=O)c2ccccc2Br)CCC1	0.0%	-3.0%	-1.9	0.3%
N#CCCN(C(=O)COC(=O)c1ccc2c(c1)OCCO2)c1ccccc1	4.0%	.	.	0.6%
CC(C)CC(=O)N1CCN(Cc2ccc(C(F)(F)F)cc2)CC1	15.2%	14.0%	.	0.3%
N=c1c2c(ncn1CCN1CCOCC1)Oc1cc(O)ccc1C2c1ccccc1 (centres undefined)	-27.4%	8.6%	2.8	?
CCS(=O)(=O)c1ccc2oc(=O)c(/C=C(\O)c3ccc(Cl)cc3)nc2c1	?	-1.1%	2.8	-11.5%
CN(CCC#N)C(=O)CC(Cc1ccccc1)C1CCOC(C)(C)C1 (centres undefined)	12.1%	2.8%	-2.3	-0.2%
O=C(O)Cc1c(C(=O)O)nnn1-c1cccc(C(F)(F)F)c1	1.7%	1.1%	3.8	0.9%
CCc1noc(C)c1C(=O)OC(C)C(=O)Nc1ccccc1OC (centres undefined)	-1.0%	.	.	-1.8%
CCC(=O)Oc1ccc(C(=O)Nc2cccc(NC(=O)c3ccco3)c2)cc1	9.5%	-9.9%	.	0.8%
O=C(Nc1cccc2nsnc12)c1ccc(-c2ccc(Br)cc2)o1	?	-17.0%	7.9	?
CC(c1ccccc1)c1nnc(NC(=O)c2ccc3c(c2)OCO3)s1 (centres undefined)	1.8%	1.7%	6.3	0.3%
Cc1ccc(CNCC(O)c2ccccc2)s1 (centres undefined)	17.3%	-16.9%	.	-1.3%
CCC(NS(=O)(=O)c1ccc(OC)cc1)C(=O)O (centres undefined)	6.8%	0.0%	6.1	4.3%
CCOc1ccc(-c2c(C(=O)N/N=C(\C)c3ccncc3)nnn2-c2nonc2N)cc1	15.0%	-1.3%	.	0.9%
NC1=NC(c2ccc(Cl)cc2)n2c(nc3ccccc32)N1 (centres undefined)	-7.9%	-6.6%	8.3	1.6%
Cc1no[n+]([O-])c1COc1ccc(/C=N/n2nnnc2N)cc1	6.2%	-7.1%	-5.9	-2.9%
COc1ccc(-n2nnc3c(SCc4ccccc4)ncnc32)cc1	-15.3%	-7.7%	0.6	-0.9%
COc1ccc(CN2CCN(C3CCC3)CC2CCO)cc1C (centres undefined)	-2.3%	0.3%	.	-1.9%
COc1ccc(NS(=O)(=O)c2cc(NC(=O)c3ccccc3)ccc2N2CCOCC2)cc1	-10.7%	.	.	-1.7%
